RecA splice inh – Mtb RecA intein splicing inhibitors, primary screen, biochemical, fluorescence, HTS. cell-free RecA intein splicing. inhibition, %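 (about 9 µM by stock and volumes)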. actives 0.75% (n = 290,000); in the data active = inhibition above about 30%; inconclusive = no clear call, values can overlap the other calls;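 also: 0% = vehicle wells and 100% = reference inhibitor control wells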
Target sequence (P9WHJ3 whole entry, looked up, canonical isoform): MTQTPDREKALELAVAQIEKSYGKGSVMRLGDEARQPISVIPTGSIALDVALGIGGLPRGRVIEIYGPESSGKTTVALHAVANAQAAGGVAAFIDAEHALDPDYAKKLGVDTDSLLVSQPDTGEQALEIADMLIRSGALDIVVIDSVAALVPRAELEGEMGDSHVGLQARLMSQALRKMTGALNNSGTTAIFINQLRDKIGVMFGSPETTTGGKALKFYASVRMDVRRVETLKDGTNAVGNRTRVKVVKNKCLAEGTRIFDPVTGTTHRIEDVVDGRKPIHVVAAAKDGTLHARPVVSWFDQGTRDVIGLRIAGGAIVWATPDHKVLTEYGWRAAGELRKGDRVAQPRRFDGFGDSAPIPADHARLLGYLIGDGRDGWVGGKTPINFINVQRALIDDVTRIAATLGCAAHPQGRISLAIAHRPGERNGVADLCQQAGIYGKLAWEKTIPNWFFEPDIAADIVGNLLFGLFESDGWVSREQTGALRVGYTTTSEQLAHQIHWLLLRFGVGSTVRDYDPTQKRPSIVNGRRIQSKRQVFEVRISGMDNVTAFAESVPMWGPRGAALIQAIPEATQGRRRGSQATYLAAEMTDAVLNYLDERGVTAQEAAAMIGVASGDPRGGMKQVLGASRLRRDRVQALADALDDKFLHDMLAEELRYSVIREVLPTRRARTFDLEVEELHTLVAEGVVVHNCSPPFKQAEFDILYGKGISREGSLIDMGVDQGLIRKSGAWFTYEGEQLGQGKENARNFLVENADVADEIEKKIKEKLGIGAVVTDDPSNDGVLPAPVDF
Arbovirus anti – antivirals against arbovirus infection, primary screen, cell-based, full library, 10K replicate subset; arbovirus infection cell-based antiviral screen; AID 1251, 2008; inhibition, % at 10 µM; actives 0.37% (n = 200,000);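 active = inhibition from about 30%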;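 also: bluetongue infection of BSR cells; cell survival read as ATP light after 72 h; 0% = infected wells without compound and 100% = uninfected wells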
Mtb bLac sens – beta-lactam sensitization of Mtb H37Rv, H37Rv; inhibition, % at 25 µM; M. tuberculosis H37Rv growth with meropenem, percent inhibition; hits of this screen are not shown here; AID 434955, 2010; actives 0.27% (n = 330,000);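 active = about 74% or more and at least 40 points above the plate without the antibiotic, then above 30% in a dose series; inconclusive = first-round hits that could not be retested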;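 also: growth measured after seven days incubation then overnight dye step; 0% = bacteria only wells and 100% = bacteria with antibiotic; twin plates without the antibiotic show which effects depend on it; some results filed as inactive read as strong as hits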
YopH PTP inh – YopH tyrosine phosphatase inhibitors, primary screen, biochemical, fluorescence Ex485/Em525; YopH tyrosine phosphatase [Yersinia enterocolitica]; inhibition, %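 (about 10 µM by stock and volumes)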; actives 0.16% (n = 140,000); AID 898, 2007;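 active = inhibition of 50% or more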;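 also: controls were vehicle for no effect and minimum signal wells for full effect; inactives centre near -20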
Mtb H37Rv – M. tuberculosis H37Rv growth inhibitors, H37Rv strain (AID 1626) | actives 0.95% (n = 220,000) | inhibition, % at 10 µM, or IC50 in µM where a hit was titrated | M. tuberculosis H37Rv growth inhibition; higher % means a stronger effect;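 active = confirmed in a dose series; inconclusive = inhibition above 80% but not taken into the dose series; inactive = below 80% or under 30% at every dose of the series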;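 also: bacteria incubated seven days before Alamar blue readout; 0% = bacteria only wells and 100% = bacteria with antibiotic wells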
Arbovirus anti repeat – second read-out of Arbovirus anti, no call of its own (marks repeat the call); inhibition, %; measured here: 10K subset replicate screen; many hits read low in the repeat;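 first of two repeat runs on a subset; 0% = infected and 100% = uninfected wells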
Active calls of the source: *; ? = inconclusive; . = no result given. Not all compounds are listed; count on the stated rates, not on these rows.

SMILES | RecA splice inh | Arbovirus anti | Mtb bLac sens | YopH PTP inh | Mtb H37Rv | others
CN(CC(=O)Nc1ccc(F)cc1)C(=O)CCc1nc2sc3c(c2c(=O)[nH]1)CCCC3 | -1.8 | . | 0 | . | .
CCNc1ccc(C(=O)OCC)cc1NC(=O)c1cccc(S(=O)(=O)N2CCOCC2)c1 | 4.7 | 3 | 1 | -22 | -2%
O=C(NCc1cccs1)C1(S(=O)(=O)c2ccccc2)CC=CC1 | 4.3 | . | -14 | . | .
CN(C)/C=C(/C(=O)c1ccccc1Cl)S(=O)(=O)c1ccccc1 | -7.1 | . | 6 | -45 | 76%
Cc1ccccc1NC(=O)C(C)OC(=O)c1ccccc1C(=O)N(C)c1ccccc1 (stereo not given) | -1.5 | . | 6 | . | .
Cc1csc(=O)n1CC(=O)OCC(=O)Nc1cc([N+](=O)[O-])ccc1Cl | -1.2 | . | 1 | . | .
COc1cccc(OC)c1C(=O)NC(=O)Nc1c(F)cc(F)cc1F | -3.7 | . | -4 | . | 5%
COc1ccc(C2NC(=O)NC3=C2C(=O)CCC3)cc1 (stereo not given) | -0.4 | . | 0 | . | .
CSc1nsc(/C=C/Nc2ccc(C(=O)O)cc2)c1C#N | 1.6 | 6 | -8 | . | 3%
COc1ccc(C(C(N)=O)c2ncc(C(F)(F)F)cc2Cl)cc1OC (stereo not given) | 1.5 | 11 | 3 | . | 0%
CCOc1ccc2nc(SCC(=O)NCc3ccc(S(N)(=O)=O)cc3)[nH]c2c1 | 1.1 | . | -8 | . | .
c1ccc(-c2nc(N3CCCCCC3)c3ccccc3n2)nc1 | 32* | -24 | 81 | -36 | 0.3µM*
N/C(=N\NC(=O)c1ccccc1Cl)c1cc2ccccc2oc1=O | 0.8 | 16 | 9 | . | 2%
O=C(NC1CC2CCCC(C1)N2C(=O)Nc1ccccc1)c1ccccc1 (stereo not given) | -1.2 | . | -2 | . | .
COC(=O)c1ccccc1NC1c2ccccc2C(=O)N1c1cccnc1 (stereo not given) | 2.4 | -1 | -4 | -24 | 5% | Arbovirus anti repeat=-1
COc1ccc(OC/C(O)=C(\C#N)c2nc3ccccc3[nH]2)cc1 | 1.0 | -18 | -4 | -23 | .
Cc1cc2ncn(S(=O)(=O)c3ccc(S(=O)(=O)N4CCCCCC4)cc3)c2cc1C | 0.7 | . | -4 | 41 | -6%
CCCCN(CC)C(=O)Cn1ncc2c3ccccc3n(CCC)c2c1=O | -0.6 | . | -4 | . | .
COc1cc(S(=O)(=O)NC2CCCCC2C)ccc1Cl (stereo not given) | . | 8 | -6 | -38 | -4%
NS(=O)(=O)c1ccc(NC(=O)c2ccc3c(c2)CCN3S(=O)(=O)c2ccccc2)cc1 | 0.6 | . | -1 | . | .
CN1C(=O)C2C3c4ccccc4C(c4ccccc43)[C@@H]2C1=O (stereo not given in full) | 1.1 | . | -6 | . | .
COc1ccc(Nc2nc(C)cc(=O)[nH]2)c(OC)c1 | 0.7 | 10 | -5 | 1 | -2%
COc1ccc(-c2nnn(CC(=O)N(CC(=O)NC3CCCC3)c3ccccc3F)n2)cc1OC | 0.4 | . | -1 | . | .
CN(Cc1nc2ccccc2n1C)S(=O)(=O)c1ccc(F)cc1 | . | -9 | 11 | 1 | 5%
NNC(=O)CSc1cccc2cccnc12 | 0.6 | 4 | ? | -27 | -10%
(listing goes on)
SMILES | RecA splice inh | Arbovirus anti | Mtb bLac sens | YopH PTP inh | Mtb H37Rv | others
CCCCN1CCNC[C@@H]1Cc1ccccc1 | -0.1 | . | -10 | . | .
CCOC(=O)Cn1nnc(-c2cc(OC)c(OC)c(OC)c2)n1 | -4.3 | 5 | 15 | . | -1%
O=C(Cn1cnc2ccccc2c1=O)NCCC(=O)Nc1ccc2c(c1)OCO2 | 0.3 | -3 | -5 | . | -7%
COc1ccc(C(=O)/C=C2/Sc3cc4c(cc3N2C)OCO4)cc1 | -6.1 | -8 | 6 | -10 | 7%
Cc1ccc(CNC(=O)C2CCN(S(=O)(=O)N3CCC4(CC3)OCCO4)CC2)cc1 | -0.2 | 1 | -3 | -19 | 2%
CCOC(=O)C1C(c2ccc(OC)c(OC)c2)c2c([nH][nH]c2=O)CC1(C)O (stereo not given) | -2.9 | . | -4 | . | -1%
Cc1sc(N2CCN(S(=O)(=O)c3ccc4c(c3)NC(=O)CO4)CC2)nc1-c1ccccc1 | 3.2 | . | 3 | . | .
O=C1CSC(c2ccccc2O)N1Cc1ccccc1 (stereo not given) | 3.2 | . | -3 | . | .
COCCSc1ccccc1C(=O)Nc1ccccc1C(C)C | 5.3 | 14 | 1 | . | 10%
CC(C)(c1ccccc1)c1ccc(OCCCNCCO)cc1 | . | -37 | -2 | -15 | -4%
O=C(Nc1cccnc1)c1ccc(NS(=O)(=O)c2cc([N+](=O)[O-])ccc2Cl)cc1 | . | . | 4 | . | -4%
CN1C(=S)SC(N(O)C(=O)NC2CCCCC2)C1(C)C (stereo not given) | -0.2 | 6 | -10 | -47 | -10%
COC(=O)c1ccc(C(=O)OC)c(NC(=S)N2CCN(c3ccc(F)cc3)CC2)c1 | 4.4 | 1 | 2 | -35 | 4%
CC1=NCCN1CCNC(=O)Nc1ccc(F)cc1 | -3.9 | . | -5 | . | -5%
Cc1ccccc1C(=O)N1CCN(c2ccc(NC(=O)c3ccc4c(c3)OCO4)cc2)CC1 | -0.4 | -33 | -9 | . | -6%
CN(C)C(=O)c1ccc(Nc2ncnc3sc4c(c23)CCCCC4)cc1 | 1.2 | . | 5 | . | .
COCCN(C(=O)COC(=O)/C(=C/c1ccccc1)NC(C)=O)c1c(N)n(Cc2ccccc2)c(=O)[nH]c1=O | -2.7 | . | 1 | . | .
Cc1nc2c(N=Nc3ccccc3F)c(N)nn2c(N)c1C#N | 0.5 | 6 | -3 | . | 9%
CC(C)NC(=O)c1onc(CSc2cccc3ccccc23)c1C(=O)O | 0.0 | 23 | 4 | -62 | 5%
CCCOc1ccccc1/C=C(\C#N)C(=O)Nc1cccnc1 | 0.6 | . | 1 | . | -1%
CCC(/C=N/NC(=O)C(=O)N/N=C/C(CC)CC)CC | -0.6 | 0 | 2 | -24 | 1%
COc1ccc(Cl)cc1N1C(=O)CC(Sc2ccccc2N)C1=O (stereo not given) | 3.1 | . | 2 | . | 3%
COc1cc(/C=N/NS(=O)(=O)c2ccc(C)c([N+](=O)[O-])c2)ccc1O | -5.7 | 12 | 2 | . | -4%
CCC(C)C(NC(=O)OC(C)(C)C)C(=O)NC(Cc1ccccc1)C(=O)OC (stereo not given) | 2.6 | 2 | 2 | -38 | -4%
CC(C)CC(=O)N1CCN(C(=O)CCC2CCCC2)CC1 | -1.9 | 5 | -2 | -43 | 7%
Later entries.
SMILES | RecA splice inh | Arbovirus anti | Mtb bLac sens | YopH PTP inh | Mtb H37Rv | others
CC(=O)Cc1cc2cc([N+](=O)[O-])ccc2oc1=O | -12 | . | 5 | . | 0%
NS(=O)(=O)c1ccc(CCNC(=O)CSc2ccccc2)cc1 | 1.3 | 9 | -6 | -29 | 2%
CN(C)CCNc1nc2c(c(=O)[nH]c(=O)n2C)n1CCCc1ccccc1 | -0.8 | 0 | -4 | 0 | 4% | Arbovirus anti repeat=-2
COc1ccc(CCNC(=O)CSCc2ccc([N+](=O)[O-])cc2)cc1OC | -0.3 | 1 | -1 | -17 | -6%
C=CCn1c(Cc2cccs2)nnc1SCC(=O)c1cccc(Br)c1 | 11 | 1 | 0 | -4 | -4%
Cc1c(C(=O)N2CCC(Cc3ccccc3)CC2)cccc1[N+](=O)[O-] | 0.3 | -3 | -2 | . | 1%
COc1ccc(C2(CN(C(C)=O)C(C)=O)CCCC2)cc1OC | 3.4 | 4 | 2 | 2 | 13%
COc1ccc(-c2cn3cccnc3n2)cc1F | -3.9 | 1 | -3 | 7 | 4%
COc1ccc(CCNC(=O)c2nnn(CC(=O)Nc3ccccc3)c2N)cc1OC | 1.5 | 19 | -9 | -55 | -5%
COc1ccccc1NS(=O)(=O)c1cc(NC(=O)c2ccncc2)ccc1N1CCCC1 | 14 | 9 | -2 | . | 2%
CC1CN(S(=O)(=O)c2cccc(C(=O)OCC(=O)Nc3ccc4c(c3)OCO4)c2)CC(C)O1 (stereo not given) | . | 6 | 86 | -2 | 4%
C=CCNc1cnn(-c2ccccc2)c(=O)c1Cl | . | 2 | 6 | . | -2%
CCn1c(Cc2cccs2)nnc1SCC(=O)Nc1ccc(OC)c(OC)c1 | -3.2 | 1 | -10 | -41 | -10%
CC1(C)CCCN(C(=O)c2coc(=O)c(Br)c2)C1 | -2.1 | 7 | . | -57 | -7%
C/C(CCc1oc2ccccc2c1-c1ccc(C)o1)=N/O | 5.4 | 0 | 60 | -36 | 11%
CN1CCCN(S(=O)(=O)c2cccc(Cl)c2Cl)CC1 | -2.1 | 0 | 0 | . | 5%
CCn1cc(CN2CCCC(C(=O)Nc3cccc(-c4cc5ccccc5[nH]4)c3)C2)c(C)n1 (stereo not given) | 1.7 | . | 1 | . | .
CC(C)N=C(Nc1cccnc1)c1ccccc1 | -1.6 | . | -7 | . | .
COc1cc(NC(=O)COc2ccccc2Cl)ccc1NC(=O)C(C)C | -1.9 | -3 | 48 | . | 17%
CC(C)(C)NCC(O)c1cc(Cl)c(N)c(Cl)c1 (stereo not given) | 0.2 | -5 | 1 | -27 | 11%
Cc1c(N=Cc2cc(Br)cc(Br)c2O)cccc1C(=O)O | -0.7 | -1 | 13 | -25 | -8%
CNC(=O)c1ccccc1NC(=O)C1CC(=O)N(C(C)C)C1 (stereo not given) | -1.6 | . | -3 | . | .
COc1cc2c(cc1OC)CN(C(=O)Nc1ccccc1)CC2 | -0.5 | . | -3 | . | .
CCCCN1C2=C(C(=O)CCC2)C(c2ccc(Cl)c(Cl)c2)C2=C1c1ccccc1C2=O (stereo not given) | 1.0 | -2 | 5 | -34 | -3%
CCC(=O)Nc1ccc(C(=O)n2ccc(C)n2)cc1 | 0.4 | 1 | -7 | -32 | .
(cont.)
SMILES | RecA splice inh | Arbovirus anti | Mtb bLac sens | YopH PTP inh | Mtb H37Rv | others
OCCNCCCCSc1ccc(Cl)cc1 | 0.5 | -29 | 2 | . | -4%
COc1cc(NS(=O)(=O)c2ccc(NC(=S)NC(=O)C3CCCC3)cc2)nc(OC)n1 | 1.2 | 1 | 5 | -59 | 1%
COCCCn1c(SCC(=O)OC2CCCCC2)nnc1-c1ccco1 | 9.3 | 3 | . | -4 | -15%
COc1cc(-c2cc(C(=O)Nc3ccc(S(=O)(=O)NCc4ccco4)cc3)c3ccccc3n2)cc(OC)c1OC | -2.0 | -6 | -2 | -42 | 8%
C=CCC1(NCc2ccco2)CCN(CC)CC1 | -0.7 | 3 | 5 | . | 1%
CCC(CC)C(=O)NCc1ccc(OC)cc1 | 8.6 | 0 | 1 | . | 3%
CC(C)(C)c1ccc(C(=O)N/C(=C\c2cccs2)C(=O)N2CCOCC2)cc1 | 1.2 | . | 2 | . | .
C=CCSc1nnc(NC(=O)c2cn(CC)c3nc(C)ccc3c2=O)s1 | 5.7 | -3 | 6 | . | 4%
COc1cc(C)c(Cl)cc1S(=O)(=O)N(C)C | 0.9 | -4 | -4 | -20 | -5%
Cc1ccc(NC(=O)c2cccs2)cc1NC(=O)c1ccccc1Cl | 0.7 | . | 1 | . | .

Random excerpt: 5 records from the list.
SMILES | RecA splice inh | Arbovirus anti | Mtb bLac sens | YopH PTP inh | Mtb H37Rv | others
COCCCn1c(SCC(=O)OC2CCCCC2)nnc1-c1ccco1 | 9.3 | 3 | . | -4 | -15%
CC(C)(C)c1ccc(C(=O)N/C(=C\c2cccs2)C(=O)N2CCOCC2)cc1 | 1.2 | . | 2 | . | .
COc1cc(-c2cc(C(=O)Nc3ccc(S(=O)(=O)NCc4ccco4)cc3)c3ccccc3n2)cc(OC)c1OC | -2.0 | -6 | -2 | -42 | 8%
C=CCSc1nnc(NC(=O)c2cn(CC)c3nc(C)ccc3c2=O)s1 | 5.7 | -3 | 6 | . | 4%
COc1cc(NS(=O)(=O)c2ccc(NC(=S)NC(=O)C3CCCC3)cc2)nc(OC)n1 | 1.2 | 1 | 5 | -59 | 1%

Four structures out of the list, arranged by formula weight, highest first:
SMILES | RecA splice inh | Arbovirus anti | Mtb bLac sens | YopH PTP inh | Mtb H37Rv | others
COc1cc(-c2cc(C(=O)Nc3ccc(S(=O)(=O)NCc4ccco4)cc3)c3ccccc3n2)cc(OC)c1OC | -2.0 | -6 | -2 | -42 | 8%
CC(C)(C)c1ccc(C(=O)N/C(=C\c2cccs2)C(=O)N2CCOCC2)cc1 | 1.2 | . | 2 | . | .
Cc1ccc(NC(=O)c2cccs2)cc1NC(=O)c1ccccc1Cl | 0.7 | . | 1 | . | .
OCCNCCCCSc1ccc(Cl)cc1 | 0.5 | -29 | 2 | . | -4%
